Yeast UUG start = modulators of start codon recognition fidelity in yeast. S. cerevisiae UUG-firefly luciferase reporter, luminescence/redox ratio. activity score, % at 18.7 µM. hit rate 0.13% among 350,000. AID 602363;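 active = replicate mean at a twofold rise or more, about +100% in these data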;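 note: firefly luciferase made from a UUG start codon reports start codon fidelity; reporter light over untreated wells divided by growth signal over untreated wells; some hits fall short of that in this replicate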
CSC inhib = blocks cancer stem cells; cancer stem cell-like cells viability, luminescence; inhibition, % at 7.5 µM; hit rate 1.1% among 300,000; AID 2717;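 active = mean at 75% or more and at least half the replicates too; inconclusive = mean and replicates disagree; tested in HMLE shEcad cells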;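 note: 0% = median of negative and 100% = median of positive control wells; the first replicate is given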
MT1-MMP act inh = inhibitors of human MT1-MMP activation; HT1080 RFP-PRO-GFP cells, GFP/RFP ratio fluorescence, overnight; percent of plate control window, DMSO zero; AID 651647; GFP/RFP ratio change, % at 20 µM; hit rate 0.061% among 360,000;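 active = GFP/RFP ratio change of at least 30% with cell ATP level not reduced by more than half and red fluorescence within 50% of control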; note: strong numbers were not always called active
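Material – HT1080 RFP-PRO-GFP cells · Control set – DMSO wells and RFP-L50D-GFP cells · Incubation – overnight cell settling, then overnight compound exposure, 37 °C, 5% CO2 · Compound dosing – single-point 20 µM compound, 1% DMSO · Read-out – GFP/RFP fluorescence ratio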
Rce1 inhib = yeast Ras-converting enzyme inhibition | hit rate 0.27% among 290,000 | Q03530 | yeast membranes, quenched prenylated peptide cleavage fluorescence | AID 2563 | calls only;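 active = fall in fluorescence gain of 50% or more versus controls, with final raw signal at or below 3038400; inconclusive = same 50% fall but final raw signal above 3038400; inactive = fall in fluorescence gain under 50%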;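 note: plate controls were neutral control wells for no effect and wells lacking membranes for full effect; tested at 10 µM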
PABP polyA inh = blocks human PABP binding to poly(A) RNA; inhibition, % at 35 µM; P11940; AID 2014; hit rate 1% among 290,000; fluorescence polarization;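 active = 50% or more with normal probe brightness, or confirmed in later tests; inconclusive = above 50% with abnormal brightness, or retests that disagree; inactive = below 50% or failed in later tests; about a fifth of its hits are not listed in these tables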;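 note: calls also rest on retests at 20 µM and on dose response follow-up; controls were probe without protein and protein plus probe with vehicle; some compounds called inactive have numbers as strong as hits; many hits fall short of the cut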
Target sequence (P11940 whole entry, looked up): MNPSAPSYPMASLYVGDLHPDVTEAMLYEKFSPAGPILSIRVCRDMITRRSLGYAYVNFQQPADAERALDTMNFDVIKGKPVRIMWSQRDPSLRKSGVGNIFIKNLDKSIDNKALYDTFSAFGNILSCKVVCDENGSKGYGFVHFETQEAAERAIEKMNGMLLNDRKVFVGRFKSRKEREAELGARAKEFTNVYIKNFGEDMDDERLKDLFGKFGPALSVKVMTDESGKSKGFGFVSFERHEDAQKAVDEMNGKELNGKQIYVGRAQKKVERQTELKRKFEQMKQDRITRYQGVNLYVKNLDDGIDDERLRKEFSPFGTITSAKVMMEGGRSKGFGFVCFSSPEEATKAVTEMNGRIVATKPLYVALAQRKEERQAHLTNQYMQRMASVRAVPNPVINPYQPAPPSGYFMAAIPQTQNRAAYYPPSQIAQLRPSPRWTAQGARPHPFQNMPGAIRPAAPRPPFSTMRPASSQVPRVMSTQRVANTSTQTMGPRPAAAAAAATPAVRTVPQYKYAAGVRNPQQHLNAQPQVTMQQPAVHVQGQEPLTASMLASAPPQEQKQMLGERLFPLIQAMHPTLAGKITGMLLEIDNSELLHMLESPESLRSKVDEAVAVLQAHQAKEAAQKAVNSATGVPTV
HIV Env fusion = inhibitors of HIV Env-mediated cell fusion | hit rate 1.1% among 360,000 | inhibition, % at 12.3 µM | HeLa-JRFL Env/CEM21 cell fusion, luciferase | AID 651610;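 active = mean replicate inhibition score of at least 50 and every replicate individually at or above 50; inconclusive = only one of the two criteria met; inactive = mean below 50 and not all replicates reaching 50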;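 note: 0% = plate neutral controls and 100% = maraviroc near 300 nM; one replicate is shown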
eIF4H FP inh = inhibitors of RNA binding by human eIF4H; Q15056; eIF4H fluorescence polarization binding assay; inhibition, % at 35 µM; hit rate 0.94% among 290,000;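 active = 50% or more with normal probe brightness, or confirmed in later tests; inconclusive = above 50% with abnormal brightness, or retests that disagree; inactive = below 50% or failed in later tests; about a fifth of its hits are not listed in these tables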;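 note: calls also rest on retests at 20 µM and on dose response follow-up; 0% = protein and probe with vehicle and 100% = probe without protein; strong numbers were not always called active; many hits fall short of the cut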
eIF4H FP inh retest = also measured in eIF4H FP inh; calls as there; inhibition, %; compound at 20 µM; confirmation average;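 mean of two retest wells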
PABP polyA inh retest = further read-out of PABP polyA inh, marked with its call; inhibition, %; compound at 20 µM; confirmation repeats;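 mean of two retest wells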
MT1-MMP act inh RFP = second read-out of MT1-MMP act inh, no call of its own (marks repeat the call); RFP signal change, %; measured here: RFP expression control read;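 0 = vehicle wells; hits needed this value within 50% of zero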
An asterisk follows results filed as active; i = inactive; ? = inconclusive; / = no result given.

SMILES	Yeast UUG start	CSC inhib	MT1-MMP act inh	MT1-MMP act inh RFP	Rce1 inhib	PABP polyA inh	HIV Env fusion	eIF4H FP inh	others
COc1cc(C(CCN2CCN(c3ccccc3)CC2)c2c(OC)cc(OC)c3c(C)cc(=O)oc23)cc(OC)c1OC (stereo not drawn)	-22	10	7	-3	i	-5	3	18
Cc1nc(NC(C)c2ccccc2)c2c3c(sc2n1)CCC3 (stereo not drawn)	2	29	9	-6	i	1	/	-2
Oc1ccc(C[C@@H](CN2CCC[C@@H]2CN2C(=S)NC[C@@H]2Cc2ccccc2)N2C[C@H](Cc3ccccc3)N(CCc3ccccc3)C2=S)cc1	-16	/	0	-3	/	/	21	/
O=C(/C=C/c1ccc(Cl)c(Cl)c1)N1CCOCC1	12	-2	-1	-1	i	5	-31	1
CCOc1ccc(S(=O)(=O)N2CCN(C(=O)c3ccco3)CC2)cc1	-7	-14	2	-6	i	-14	13	-7
O=P(O)(O)c1ccccc1OCCOCCOCCOCCOc1ccccc1P(=O)(O)O	-9	4	-1	0	i	-7	-50	0
COc1ccc(/C=N/NC(=O)c2c(-c3ccccc3)noc2C)cc1[N+](=O)[O-]	-8	-1	-4	-16	i	-4	17	2
O=C(O)c1c2c(nc3ccc(S(=O)(=O)N4CCC(C(=O)NC5CCCCCC5)CC4)cc13)CCCC2	/	1	-3	6	i	2	3	59	eIF4H FP inh retest=6;PABP polyA inh retest=15
CC(=O)Nc1cc(NC(C)=O)cc(C(=O)OCC(=O)Nc2ccc(S(=O)(=O)NC3=NCCCCC3)cc2)c1	10	-15	0	3	i	11	-2	20
COc1cccc(-c2cc3nc(NCc4cccnc4)n(C)c(=O)c3s2)c1	-16	/	-3	-12	/	/	-17	/
Fc1cc(Br)ccc1NC(=S)NCCc1ccccc1	/	-10	-2	-13	i	2	/	-9
FC(F)(F)c1cc(Nc2ccccc2)nc(-c2ccccn2)n1	-6	5	5	4	i	2	-10	7
O=C(NCC1CCCO1)c1cc2c(=O)[nH]c3ccccc3c2s1 (stereo not drawn)	/	-9	7	3	i	8	-4	-11
O=S(=O)(Cc1ccc(Cl)cc1)NCc1cccnc1	-6	-8	-3	-2	/	4	-4	47
COc1ccccc1C(=O)O[C@H]1[C@H](Cc2ccccc2)NS(=O)(=O)[C@H]2C[C@@H]3C=C[C@]12O3	-18	1	2	-1	/	/	-31	/
O=C1CC(C2CCCO2)C(=O)N1c1ccc(Cl)c(Cl)c1 (stereo not drawn)	/	-24	-1	4	i	-11	-12	2
O=C(CSc1nnc(CNC(=O)c2ccco2)o1)Nc1ccc(Cl)cc1	/	-5	-2	5	i	3	9	-8
CCOc1ccccc1NC(=S)NCC1CCCO1 (stereo not drawn)	/	-8	3	7	i	69	/	8	eIF4H FP inh retest=1;PABP polyA inh retest=2
Cc1cc(C(=O)N2CCN(c3ccccc3Cl)CC2)c(C)o1	7	-20	-4	2	/	/	-21	/
COc1cc(C2NC(=O)NC(C)=C2[N+](=O)[O-])cc(OC)c1OC (stereo not drawn)	-13	-3	-2	7	i	0	13	0
Cc1cc(C)c2nc(NNC(=O)c3cc(-c4cccs4)nc4ccccc34)sc2c1	-3	97*	1	-5	i	20	29	13
COC(=O)c1cc2c(ccn2-c2ccc(F)cc2)n1Cc1ccc(C#N)cc1	/	30	-2	-10	i	12	/	7
COc1ccc(S(=O)(=O)N2CN3CCN(C3)C2)cc1	-27	-2	7	3	i	-6	6	-3
CCOC(=O)[C@H]1[C@H]2COc3cc(OC)ccc3[C@@H]2N2C(=O)c3cc(OC)ccc3NC(=O)[C@@]12C	-15	-4	-3	2	/	/	-453	/
Cc1ccc(C(C)C)cc1OCC(=O)Nc1ccccc1N1CCCC1	-13	20	-4	-3	i	-2	41	-16
Carrying on:
SMILES	Yeast UUG start	CSC inhib	MT1-MMP act inh	MT1-MMP act inh RFP	Rce1 inhib	PABP polyA inh	HIV Env fusion	eIF4H FP inh	others
CCOc1ccc(NS(=O)(=O)c2ccc(-c3ccc(=O)[nH]n3)o2)cc1	/	-24	1	-4	i	2	15	-14
CN(Cc1cnn(C)c1)Cc1nc(-c2ccc(Cl)cc2)no1	6	1	3	-1	i	-10	9	-10
CC(C)(C)NC(=O)COc1ccc(S(=O)(=O)N2CCCC2)cc1	-31	18	-3	0	i	12	10	4
Cc1ccccc1C(=O)NC(=S)Nc1cccc(NC(=O)C(C)C)c1	/	1	1	-6	i	-7	13	2
CCNc1c(NC(=O)C2CCC(C)CC2)c(=O)oc2ccccc12 (stereo not drawn)	-14	/	2	2	i	2	2	-1
CCOC(=O)c1sc(NC(=O)Nc2ccc(F)cc2)nc1C	/	/	-6	-5	i	1	-314	2
C=CCOc1ccnc(-c2ccccc2)n1	-10	-6	0	2	i	1	-4	5
CC1CCN(C(=O)Cn2c(=O)n(Cc3ccc4c(c3)OCO4)c(=O)c3ccccc32)CC1	-5	/	6	6	i	-14	/	-3
Cc1cc(/C=C2\SC(=S)NC2=O)c(C)n1C1CC1	-9	41	-27	4	i	37	-186	33
O=S(=O)(NCCc1ccc2c(c1)OCCO2)c1cccs1	-12	-5	0	5	i	-20	3	4
O=C(C1CC=CCC1)N1CCC(CO)(Cc2ccc(Cl)cc2)CC1 (stereo not drawn)	-8	-5	3	-9	i	4	14	-14
CCC(Sc1nc2ccc(C)cc2[nH]1)C(=O)O (stereo not drawn)	-16	4	-2	3	i	-2	/	-11
CCCCN(C)CCNC(=O)c1cc2c(=O)[nH]c3ccccc3c2n1C	3	-2	1	3	i	-1	-6	6
C=CCC1[C@H](C)[C@H]2[C@@H]3CC[C@@H](C3)[C@H]2CN1S(=O)(=O)c1ccc(C)cc1 (stereo partly drawn)	-19	/	-6	-11	/	/	28	/
O=C(NCCN1CCCCC1)/C(=C/c1ccco1)NC(=O)c1ccccc1	11	-9	-1	-1	i	10	-3	5
COc1cccc(S(=O)(=O)Nc2ccc(C(=O)N3CCCCCC3)cc2)c1	-26	5	1	-5	i	-8	11	-3
O=CN1N=C(c2ccccc2)CC1c1ccccc1[N+](=O)[O-] (stereo not drawn)	/	0	6	5	i	3	2	0
CCCCn1c(N)c(N(CCOC)C(=O)c2oc3ccc(OC)cc3c2C)c(=O)[nH]c1=O	-8	-6	-1	1	i	0	-29	-11
CC(C)c1cc(C(=O)NC2CCCc3c2cnn3-c2ccccc2F)no1 (stereo not drawn)	6	3	-3	-21	i	-5	36	-10
O=C(NCc1ccc2c(c1)OCO2)C(=O)NCC1OCCN1S(=O)(=O)c1ccc(Br)cc1 (stereo not drawn)	-11	13	5	-15	i	-5	1	-5
N#CC1CC(c2ccc([N+](=O)[O-])cc2)=NN1c1ccc([N+](=O)[O-])cc1 (stereo not drawn)	-13	31	-92	-9	i	10	-4	?
CC1CCCCC1NC(=S)NC(=O)c1cccs1 (stereo not drawn)	/	13	-1	0	i	-7	-44	4
C/C(=N/NC(=O)CN1CCN(S(=O)(=O)c2ccc(Br)cc2)CC1)c1ccco1	/	2	2	1	i	3	10	9
CCCCNC(=O)c1ccc2nc(CC)c(N(CC)CCN(C)C)n2c1	-37	/	-10	-2	/	/	9	/
Clc1ccc2nc(-c3cccc(Br)c3)c(Cc3ccsc3)n2c1	-6	/	1	6	/	/	-9	/
Further records:
SMILES	Yeast UUG start	CSC inhib	MT1-MMP act inh	MT1-MMP act inh RFP	Rce1 inhib	PABP polyA inh	HIV Env fusion	eIF4H FP inh	others
O=S1(=O)CCN(CCCCc2ccccc2)CC1	-31	/	-1	4	/	/	0	/
CC(=O)Nc1ccc(S(=O)(=O)NC(C)C(=O)OCC(=O)NC2CCCC2)cc1 (stereo not drawn)	/	-8	7	4	i	-12	9	0
O=C1CCCN1CCC1CCCCN1Cc1nc(-c2cnccn2)no1 (stereo not drawn)	-8	-16	-6	-6	i	-12	8	-6
COC(=O)c1ccccc1NC(=O)C1CCN(C(=O)Cc2ccccc2)CC1	6	9	-3	-4	i	10	4	-3
CCCN(C(=O)COC(=O)CSc1ccc([N+](=O)[O-])cc1)C1CCS(=O)(=O)C1 (stereo not drawn)	-12	-8	8	5	/	/	/	/
O=C(Cc1ccc(F)cc1)Nc1nnc(-c2ccc(F)cc2)o1	-14	12	-3	-1	i	/	4	/
OC(C[n+]1ccccc1)c1ccccc1 (stereo not drawn)	-10	-9	-6	1	i	-2	3	-7
Cc1nc(CCNC(=O)C2CCC(=O)N(Cc3ccc(Cl)cc3)C2)sc1C (stereo not drawn)	-7	/	-3	0	i	11	-3	5
O=C(NCCN1CCOCC1)c1cccc(S(=O)(=O)N2CCCCCC2)c1	-13	-7	/	/	i	3	-42	-5
Clc1ccc(Cn2ncc3c(N4CCCC4)ncnc32)cc1	-20	1	3	-2	i	6	/	4
CC1CCN(CC(C)OC(=O)c2ccc3c(c2)OCCO3)CC1 (stereo not drawn)	-5	-8	4	6	i	1	-15	0
Nc1nc(Br)c2ccccc2c1-c1ccc(F)cc1	-3	/	-13	-6	i	-6	31	-9
O=C(CCC1CCCC1)Nc1cccc(Cc2ccncc2)c1	/	/	1	2	i	-9	10	-6
CCOC(=O)c1ccc(NC(=O)Nc2c(C)n(C)n(-c3ccccc3)c2=O)cc1	-8	6	2	0	i	-8	4	4
COc1cccc(C2CC(c3ccccc3)n3ncnc3N2)c1 (stereo not drawn)	-32	-5	-1	4	i	-12	-6	4
Cc1ccc(S(=O)(=O)NCCCn2ccnc2)cc1C(=O)NC(C)C	-10	16	-2	3	i	3	5	-7
CC(C)(C)c1ccccc1NC(=O)CN1C(=O)NC(Cc2ccccc2)C1=O (stereo not drawn)	/	-2	-3	-1	i	/	3	/
CN(CC(=O)Nc1ccccc1C(F)(F)F)C(=O)COc1cccnc1[N+](=O)[O-]	/	-3	0	4	i	29	-11	30
CC(C)(C)C(=O)CNS(=O)(=O)c1ccc(S(=O)(=O)NC2CCCC2)cc1	4	-1	-1	-2	i	2	/	-15
Cc1ccc(NC(=O)CCC(=O)NNC(=O)COc2ccc([N+](=O)[O-])cc2)c(C)c1	-6	-10	-1	-2	i	5	/	-12
CCN(CC(=O)Nc1c(F)cccc1F)C(=O)C1COc2ccccc2O1 (stereo not drawn)	9	/	11	1	/	/	-5	/
O=C(Cn1cc(C(=O)c2cccs2)c2ccccc21)NCc1cccs1	-19	-9	5	4	i	5	-82	-4
CCOCCCNC(=O)C1CCCN1C(=O)NC1CCCCC1 (stereo not drawn)	-18	4	7	7	i	-11	-37	-2
COc1ccc(-c2cn3c(C)c(C(=O)NC(C)(C)C)sc3n2)cc1	-3	31	6	2	i	7	/	-7
O=c1c([N+](=O)[O-])cccn1Cc1ccc(F)cc1Cl	10	-2	-26	-15	i	-6	-10	6
CCOC(=O)N1CCN(C(=O)C(=O)N/N=C/c2ccc(OC)cc2OC)CC1	/	-3	2	-1	i	2	-33	5
Cc1cccc2cc(CN(CC(C)C)S(=O)(=O)c3ccccc3)c(=O)[nH]c12	3	11	4	-5	i	2	8	-4

Retrieved one by one from above (three):
SMILES	Yeast UUG start	CSC inhib	MT1-MMP act inh	MT1-MMP act inh RFP	Rce1 inhib	PABP polyA inh	HIV Env fusion	eIF4H FP inh	others
CC1CCN(CC(C)OC(=O)c2ccc3c(c2)OCCO3)CC1 (stereo not drawn)	-5	-8	4	6	i	1	-15	0
CC(=O)Nc1ccc(S(=O)(=O)NC(C)C(=O)OCC(=O)NC2CCCC2)cc1 (stereo not drawn)	/	-8	7	4	i	-12	9	0
CN(CC(=O)Nc1ccccc1C(F)(F)F)C(=O)COc1cccnc1[N+](=O)[O-]	/	-3	0	4	i	29	-11	30

High-throughput results as filed in PubChem.

This is a subset. The share of hits here may be higher or lower than overall.
